Screens (PubChem BioAssay)
ugtP null kill – compounds lethal to S. aureus RN4220 ugtP deletion mutant | actives 0.54% (n = 330,000) | AID 1259309 | growth inhibition, % (no concentration beside the values) | OD600 growth, 16 h; some inactives read as strong as hits;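 active means z-score under -3 and OD600 up to 0.15 on both plates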;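 further: plate controls were untreated wells for no effect and antibiotic for full effect; wells of about 80 µL received 100 nL stock; the first replicate is given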
BJeLR lethal – kills HRASV12-expressing BJeLR cells. actives 0.17% (n = 300,000). BJeLR (HRASV12) viability, CellTiter-Glo ATP luminescence, 48 h; reference of the scale not given here. inhibition, % (concentration not given with the values);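 active means replicate mean above 50%; inconclusive means above 50% but judged a plate artefact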;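 further: 50 nL library stock added to about 25 µL; numbers are from one replicate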
PrP UTR inh – suppresses PrP 5' UTR mRNA reporter expression; cell-based PrP 5' UTR mRNA reporter, plate reader; inhibition, % (no concentration beside the values); actives 0.35% (n = 340,000); AID 488862;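 active means every replicate at 50% or more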;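 further: 0 = median of the neutral control wells; tested in H4 reporter cells; numbers are from one replicate; inactives centre near -14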
RN4220 kill – S. aureus RN4220 growth inhibition; inhibition, % (test concentration not listed); OD600, 16 h; actives 0.33% (n = 330,000); AID 1259311;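 active means z-score of -3 or lower and OD600 up to 0.18 on both plates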;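 further: plate controls were untreated cells for no effect and reference antibiotic for full effect; stock transfer was 100 nL into about 80 µL; one replicate is shown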
Autofluor counter – counter-screen for toxin protease inhibitors: compound fluorescence; actives 3.1% (n = 360,000); fluorescence intensity (no concentration beside the values); compound autofluorescence counterscreen, microsphere flow cytometry; stronger effect = higher value; AID 624483;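 active means at least 3 SD above the mean of all compounds, about 16000 in these data; inconclusive means too few beads counted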;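 further: 100 nL of 1 mM stock went into each well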
Mtb hypoxia inh – inhibitors of hypoxia-regulated fluorescent reporter in Mycobacterium tuberculosis. M. tuberculosis hypoxia-regulated fluorescent reporter, fluorescence. AID 1159583. actives 0.1% (n = 300,000). fluorescence inhibition, % (concentration not given with the values);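 active means 35 to 45% if threefold the growth effect, above 45% if 1.5-fold the growth effect; inactive means the rest, general growth blockers included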;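 further: wells of about 50 µL received 100 nL stock; 0% = vehicle wells and 100% = reference inhibitor wells; whole bacteria with a GFP reporter of the hypoxia response; strong numbers were not always called active; many hits fall short of the cut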
Mtb hypoxia inh growth – recorded beside Mtb hypoxia inh, whose call it bears; growth inhibition, %; measured here: M. tuberculosis growth (absorbance);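 0% = vehicle and 100% = reference antibiotic; read after six days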
Starred values were filed as active, the others as inactive; ? = inconclusive; . = no result given.

molecule | ugtP null kill | BJeLR lethal | PrP UTR inh | RN4220 kill | Autofluor counter | Mtb hypoxia inh | Mtb hypoxia inh growth
COCCN(CC1CCCN(C2Cc3ccccc3C2)C1)C(=O)CCC(F)(F)F (stereo not given) | 7 | -12 | -18 | 4.1 | 3996 | -9 | 7
Cc1ccc(-c2cc(C(=O)NCc3cccnc3)no2)cc1 | -3 | 1 | -66 | 3.5 | 17516* | 1 | 5
Cc1cc(NC(=O)COC(=O)c2cc(S(=O)(=O)N3CCOCC3)ccc2N2CCCCC2)no1 | -6 | 8 | -19 | -8.3 | 3043 | 6 | 4
CN(C)c1nc(NCc2ccccc2)nc(NN=Cc2ccc(Br)cc2)n1 | 8 | . | . | -4.0 | . | -12 | 5
COc1ccc(C2C(C(=O)NCCN3CCOCC3)c3ccccc3C(=O)N2C2CCCCC2)cc1 (stereo not given) | -1 | -7 | . | -0.9 | . | 1 | 6
O=c1cc(CO)oc(C(Nc2ccccn2)c2ccc(C(F)(F)F)cc2)c1O (stereo not given) | 3 | 17 | -10 | 4.6 | 2392 | 7 | 5
COc1ccc(N2C(=O)CC(Sc3nnnn3-c3ccc(F)cc3)C2=O)cc1 (stereo not given) | -1 | . | -14 | 3.0 | 2530 | 8 | 3
CC(=O)Nc1cccc(C(=O)OCC(=O)N(c2ccccc2)C2CCS(=O)(=O)C2)c1 (stereo not given) | 16 | . | -1 | 3.5 | ? | 6 | -4
O=C(COc1cccc2c1CCN(Cc1ccccc1F)C2=O)N1CCOCC1 | 4 | 6 | . | 3.6 | . | 16 | 7
COc1cccc(C(=O)Nc2ccc(-c3nnc(-c4ccco4)o3)cc2)c1 | . | -11 | -20 | . | 2689 | . | .
Cc1cc(OCC(=O)OCC(=O)NC2CCCC2)ccc1Cl | 3 | . | -4 | 5.9 | 3816 | 10 | 3
CCC(C)N(C(=O)CSc1nnc(COc2ccccc2F)n1N)C1CCS(=O)(=O)C1 (stereo not given) | 3 | -7 | -1 | 1.7 | 5010 | -3 | 5
OC1CCCN(c2ncnc3c2nnn3Cc2c(F)cccc2Cl)C1 (stereo not given) | 5 | -4 | -10 | 9.3 | 4224 | 19 | 19
COCCCNC(=O)CN(C1CCCCC1)S(=O)(=O)c1ccc(C)cc1 | 3 | 6 | -30 | 6.5 | 10174 | 3 | 9
O=C1NC(=O)C2(CCCCC2)N1 | 0 | . | 10 | 2.5 | 3324 | -7 | 6
CCOC(=O)C1CCN(Cc2cc(=O)n3c(-c4ccccc4)csc3n2)CC1 | 8 | 8 | -10 | 5.5 | 3411 | 14 | 2
O=C(c1ccncc1)N1CCCC(N2CCN(c3ccc(F)cc3)CC2)C1 (stereo not given) | 8 | 1 | -30 | 3.2 | 5854 | -1 | 2
COc1cc(/C=C/C(=O)OCC(=O)N2CCN(S(=O)(=O)c3ccc(C)cc3C)CC2)ccc1O | -15 | -13 | -13 | 2.5 | 2445 | -3 | 0
Cc1oc(-c2ccccc2)nc1C(=O)O | -3 | 4 | -4 | 8.7 | 3231 | 10 | 3
C#CCOCCOCCOCCNc1nc(N2CCN(C(=O)[C@H](CCC(=O)O)n3cc(CN)nn3)CC2)nc(N2CCN(C(=O)[C@H](CCCCN)n3cc([C@@H](N)CC(N)=O)nn3)CC2)n1 | 1 | . | -12 | 1.6 | 2977 | -3 | 7
O=c1c2ccccc2nc(-c2ccccc2)n1Cc1ccccc1 | 18 | -6 | -46 | 5.2 | 8896 | 2 | 0
CCn1cc(Br)c(C(=O)Nc2ccc(OC)cc2)n1 | -6 | -1 | -17 | 6.7 | 6025 | 11 | 7
CCC(=O)Nc1ccc(-c2ccc(NC(=O)CC)c(OC)c2)cc1OC | 4 | 7 | -20 | 3.4 | 3288 | 5 | 3
O=S(=O)(NC1CCCCC1NCc1ccco1)c1ccccc1 (stereo not given) | 4 | -3 | -8 | 4.9 | 12799 | 14 | 7
CC(C)[C@H](NS(=O)(=O)c1ccccc1)C(=O)OCc1cc([N+](=O)[O-])cc2c1OCOC2 | -3 | . | -1 | 7.7 | 3542 | -5 | 8

Part of the list above in order of number of heavy atoms, ascending.
molecule | ugtP null kill | BJeLR lethal | PrP UTR inh | RN4220 kill | Autofluor counter | Mtb hypoxia inh | Mtb hypoxia inh growth
CCn1cc(Br)c(C(=O)Nc2ccc(OC)cc2)n1 | -6 | -1 | -17 | 6.7 | 6025 | 11 | 7
O=c1c2ccccc2nc(-c2ccccc2)n1Cc1ccccc1 | 18 | -6 | -46 | 5.2 | 8896 | 2 | 0
CCOC(=O)C1CCN(Cc2cc(=O)n3c(-c4ccccc4)csc3n2)CC1 | 8 | 8 | -10 | 5.5 | 3411 | 14 | 2

(cont.)
molecule | ugtP null kill | BJeLR lethal | PrP UTR inh | RN4220 kill | Autofluor counter | Mtb hypoxia inh | Mtb hypoxia inh growth
CC(Oc1ccc2ccc(=O)oc2c1)C(=O)N1CCOCC1 (stereo not given) | -2 | -1 | -12 | -0.5 | 5001 | 9 | 2
CC1(C)COCN1S(=O)(=O)c1ccc(C(=O)Nc2nnc(-c3ccc(Cl)s3)o2)cc1 | 98* | 17 | . | 100* | . | 5 | -10
CCC(=O)NC(c1ccccc1OC)c1ccc2cccnc2c1O (stereo not given) | -19 | 24 | 39 | 3.3 | 10730 | 3 | -6
CCc1nnc(NS(=O)(=O)c2ccc(N/C=C\C(=O)c3cccc4ccccc34)cc2)s1 | -18 | 1 | -17 | -0.5 | 2446 | 13 | 16
O=C(NCCCn1ccnc1)c1cc(Cl)cc(Cl)c1 | 8 | 11 | -8 | 4.3 | 2849 | 2 | 4
CC1(C)CN(c2ccccc2)N(C(=O)c2ccc(F)cc2)C1=O | -4 | -7 | -26 | 4.7 | 9982 | 4 | 6
CCc1ccc(C2NC(=S)NC3=C2C(=O)N(c2ccccc2OC)C(c2ccc(CC)cc2)N3)cc1 (stereo not given) | -31 | 2 | -4 | -2.1 | 3184 | 1 | 0
O=C(NCCN1CCOCC1)c1cc(-c2cccc(Cl)c2)on1 | -4 | -4 | -14 | -2.9 | 5698 | -16 | -7
NNC(=S)NCc1ccccc1 | 2 | 1 | 0 | 5.4 | 3445 | 15 | 15
CC(Oc1ccccc1)C(=O)Nc1nnc(S(=O)(=O)Nc2ccccc2)s1 (stereo not given) | 13 | 4 | -62 | 30 | 5882 | 10 | 4
Cn1ncc2c(NCCc3ccccc3)nc(Cl)nc21 | -2 | . | -13 | -7.5 | 4092 | 2 | 5
COc1ccccc1CNC(=O)[C@H](NC(=O)C1CCN(C(=O)[C@@H](N)CCSC)CC1)C(C)C | 4 | -4 | -5 | 2.2 | 3939 | . | .
CCCc1nnc(NC(=O)CCS(=O)(=O)Cc2ccccc2)s1 | 1 | 0 | -13 | 1.9 | 4316 | 13 | 1
COC(=O)c1cccc(NC(N)=S)c1 | 5 | 1 | -25 | 4.9 | 4187 | 3 | 2
O=C(CN1C(=O)c2ccc([N+](=O)[O-])cc2C1=O)Nc1nccs1 | 2 | 0 | 7 | 5.1 | 3353 | -3 | 7
O=C(NN=Cc1cc([N+](=O)[O-])ccc1O)c1ccc(COc2ccc3c(c2)CCC3)o1 | 9 | . | . | 37 | . | 8 | 0
O=C(Cc1cccc([N+](=O)[O-])c1)Nc1cccc(C(=O)N2CCOCC2)c1 | 3 | . | -46 | 10 | 3872 | 11 | 13
COc1ccc(S(=O)(=O)CCC(=O)N2CCN(c3ccc(F)cc3)CC2)cc1 | 13 | 2 | -25 | 4.4 | 2342 | 16 | 2
FC(F)Oc1ccc(C2=Nn3c(nnc3-c3ccccc3Cl)SC2)cc1OCC1CC1 | 2 | . | 3 | 13 | 4125 | -1 | 5
O=C(COC(=O)c1cc(=O)[nH]c2ccccc12)NCc1ccc(Cl)cc1 | 4 | . | -8 | 1.2 | 3446 | 13 | -1
CN(CC1CCCCO1)C(=O)c1cc(COc2ccc(F)cc2Cl)on1 (stereo not given) | -2 | 2 | -22 | 0.3 | 5559 | 2 | 1
COc1ccc(N2C(=O)NC(NC(=O)c3ccncc3)(C(F)(F)F)C2=O)cc1 (stereo not given) | 6 | 9 | -3 | 6.2 | 22275* | 3 | 0
COc1cccc(C(c2nnnn2CC2CCCO2)N2CCN(C(=O)c3ccco3)CC2)c1OC (stereo not given) | -3 | 7 | -20 | 8.1 | 4444 | 10 | 3
Cn1nnnc1SCC(=O)Nc1ccc(Oc2ccc(Cl)cc2)cc1 | -4 | -1 | -19 | 0.4 | 9522 | 6 | 6
CCOC(=O)c1ccccc1NC(=O)CSc1nc2c(c(=O)n(C)c(=O)n2C)n1C | 2 | 6 | . | 2.2 | . | 2 | 3

molecule | ugtP null kill | BJeLR lethal | PrP UTR inh | RN4220 kill | Autofluor counter | Mtb hypoxia inh | Mtb hypoxia inh growth
Cc1ccc(CC(=O)NC2CCCc3ccccc32)cc1C (stereo not given) | 2 | 3 | -13 | 0.7 | 3752 | 16 | -2
CCOC(=O)c1cnc2ccccc2c1Nc1ccc2c(c1)OCCO2 | -19 | 0 | -15 | 10 | 7031 | 8 | 10
O=[N+]([O-])c1ccccc1N/N=C1\CC2CC=CC12 (stereo not given) | . | -8 | -44 | . | 4682 | . | .
COc1ccc(C(=O)Nc2cc(OC)ccc2OC)cc1 | -5 | -4 | -15 | -13 | 3377 | 21 | -18
Cc1ccc(C(=O)CN2/C(=C(\O)c3ccccc3)C(=O)c3ccccc3S2(=O)=O)c(C)c1 | 5 | -2 | -21 | 15 | 15944 | -3 | -5
Cn1c(=O)c2c(nc(SCCCC#N)n2Cc2c(F)cccc2Cl)n(C)c1=O | -5 | -7 | 1 | -5.0 | 5711 | . | .
CSc1ccccc1NC(=O)CN1CCN(Cc2ccccc2)CC1 | 0 | 3 | -11 | 4.0 | 4143 | 4 | 7
CNc1ccccc1C(=O)OCC(=O)Nc1ccc2c(c1)OCO2 | 7 | -2 | -32 | 3.3 | 4904 | 1 | 0
CC(C(=O)c1ccc2ccccc2c1)N1CCCCC1 (stereo not given) | 0 | -3 | -30 | 3.1 | 4603 | 9 | 12
Cc1ccnc(NC(=O)C23CC4CC(CC(C4)C2)C3)c1 | -1 | -9 | . | -0.4 | 7997 | 2 | 5
COc1ccc(N)cc1NC(=O)CN1CCCC1 | 8 | -1 | -33 | 2.6 | 3993 | 9 | 5
OCCN(Cc1ccccc1)Cc1ccc(C(F)(F)F)cc1 | 11 | -7 | -21 | 6.2 | 3168 | 13 | 11
CCOC(=O)C(=NO)C1=NC(C)(C)Cc2cc(C)c(C)cc21 | 6 | . | . | 4.5 | . | 13 | 10
CC(C)n1nc(C(=O)OCC(=O)NCCc2ccc(S(N)(=O)=O)cc2)c2ccccc2c1=O | 5 | . | -18 | 2.3 | 3764 | 11 | 10
COc1cccc2c1OCC([C@@H]1C[C@H]3CN(Cc4cccc(Cl)c4)C(=O)[C@]34CCCN14)=C2 | 9 | -8 | 4 | 7.2 | 4600 | 1 | 8
CC(NC(=O)c1ccccc1)C(=O)N/N=C/c1ccco1 (stereo not given) | . | 4 | -13 | . | 3696 | . | .
Cc1cccc(NC(=O)CSc2nnc(-c3ccc(S(=O)(=O)N4CCCC4)cc3)o2)c1 | 1 | 1 | -2 | -1.8 | 11414 | -4 | 6
O=c1[nH]cnc2nc3n(c12)CCCCC3 | 0 | 10 | -17 | 0.7 | 2760 | . | .
CC(=O)c1c(C)[nH]c(C(=O)COc2ccc(C#N)cc2)c1C | 0 | -2 | -29 | -7.1 | 2708 | 16 | 9

Taken from above.
COc1ccc(N)cc1NC(=O)CN1CCCC1 @ ugtP null kill: 8
O=C1NC(=O)C2(CCCCC2)N1 @ Mtb hypoxia inh: -7

Entries of single compounds, quoted from the list. Order of screens: ugtP null kill, BJeLR lethal, PrP UTR inh, RN4220 kill, Autofluor counter, Mtb hypoxia inh, Mtb hypoxia inh growth
`CCOC(=O)C(=NO)C1=NC(C)(C)Cc2cc(C)c(C)cc21` across the screens: 6, ., ., 4.5, ., 13, 10
`CC(C(=O)c1ccc2ccccc2c1)N1CCCCC1` (stereo not given) across the screens: 0, -3, -30, 3.1, 4603, 9, 12
